Assay outcomes (PubChem)
NPYLR7 ag: activates Aedes aegypti NPYLR7 receptor; HEK293T NPYLR7/Galpha15, GCaMP6s calcium fluorescence; activation, % at 10 µM; actives 0.15% (n = 270,000); in the data active = activation above about 40%;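 also: 0% = vehicle and 100% = reference agonist at the receptor; some compounds past the cut are filed as inactive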
NPYLR7 ag max-min: second read-out of NPYLR7 ag, no call of its own (marks repeat the call); activation, %; measured here: Max-Min RFU normalised activation; some inactives read as strong as hits;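 span of the calcium signal over five minutes; 0% = vehicle and 100% = native peptide agonist; compound fluorescence can raise it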
Starred values were filed as active, the others as inactive; & = joins results of further samples. Not all compounds are listed, so the mix of outcomes need not match the whole.

The opening two compounds as a preview:
SMILES	NPYLR7 ag	NPYLR7 ag max-min
CCCNc1nc2c(c(=O)[nH]c(=O)n2C)n1CCC(C)C	-1	-4
CCc1ccc(-c2nc(C)c(C(=O)NC(C)C)s2)cc1	4	2

The listing, previewed entries included:
SMILES	NPYLR7 ag	NPYLR7 ag max-min
CCCNc1nc2c(c(=O)[nH]c(=O)n2C)n1CCC(C)C	-1	-4
CCc1ccc(-c2nc(C)c(C(=O)NC(C)C)s2)cc1	4	2
O=c1[nH]c2ccccc2n1CCCN1CCN(C(c2ccccc2)c2ccccc2)CC1	5	-41
O=C(c1ccco1)c1coc2ccccc2c1=O	4	3
C=CCn1c(=O)n(CC=C)c(=O)n(CC(=O)c2cc(C)n(C)c2C)c1=O	14	10
Cc1nc2ccc(NC(=O)C3CCCCC3C(F)(F)F)cc2[nH]1 (stereo not given)	-2&-2	-2&23
C=CCN(Cc1ccccn1)C(=O)C(=O)N1CCCCCC1	12	9
O=C(NC[C@@H]1CCCO1)c1cncn1-c1cccc(-c2cccc3c2sc2ccccc23)c1	7	5
CC1(C)CC2(CCO1)OC(=O)CC2C(=O)NC1CCCCC1 (stereo not given)	20	11
CNc1nc2cnc(-c3ccccc3Oc3ccccc3)cc2n1Cc1ccccc1	-9	-10
CC(C)CCCC(C)[C@H]1CCC2C3C(=O)C=C4C[C@@H](O)CC[C@]4(C)C3CC[C@@]21C (stereo not given in full)	-6	-9
Cc1cc([N+](=O)[O-])ccc1-c1ccc(C=C2C(=O)NC(=O)NC2=O)o1	-15	-23
O=C1CCCN1c1ccc(CNc2nccc(CCC(F)(F)F)n2)cc1	21	14
Cc1ccc(O)c(CN2CCCn3cccc3C2c2cccc(O)c2)c1 (stereo not given)	0	11
COC(=O)C(NC(=O)c1cc(S(=O)(=O)N2CCCCC2)ccc1C)C(C)C (stereo not given)	-8	-7
O=C(NCc1ccc(Br)cc1)NCc1ccon1	0	-1
COCC(C)NS(=O)(=O)c1ccccc1Br (stereo not given)	2	0
Cc1ccc(NC(=O)C(C)N(C)Cc2ccco2)cc1S(=O)(=O)N1CCOCC1 (stereo not given)	4	3
CC(C)c1[nH]nc2c1C1(CCN(C)CC1)C(C#N)C(=N)O2 (stereo not given)	-1	-4
Oc1c2cccnc2cn1CCC1=CSC2=NCCCN12	-8	-10
COCCNC(=O)CSc1nnc(N2CCN(C(=O)Cc3ccccc3Cl)CC2)s1	-12	-17
COCC(=O)Nc1ccc(N2CCN(C(=O)c3ccc(C(=O)OC)cc3)CC2)nc1	25	14
CC1CCCN(CC(=O)NCc2cccnc2N2CCN(C)CC2)C1 (stereo not given)	9	2
CN1C(=O)SC(CC(=O)O)C1=O (stereo not given)	-1	-1
CS(=O)(=O)Nc1ccc(-c2ccc(S(C)(=O)=O)nn2)cc1	3	1
CCc1c(C)sc2nc(-c3ccc4c(c3)OCO4)[nH]c(=O)c12	11&0	10&-2
CC(C)NC(=O)c1ccccc1NC(=O)CO/N=C/c1ccc(Br)cc1	-3	-5
Cc1nccn1CCCC(=O)N1CCC(=O)N(CC2CC2)C(C(C)C)C1 (stereo not given)	11	9
CC(C)(C)n1nc2c(c1NC(=O)Nc1cccc(Cl)c1)CSC2	-1	0
CN1CCCN(CC(=O)N2CCN(CC3CCCO3)CC2)CC1 (stereo not given)	6	3
Cc1ccccc1CN1CCN(Cc2ccc(C(N)=O)cc2)CC1	-12	-8
CCc1c(C)cc(C(=O)N2CCc3[nH]nc(-c4ccccc4)c3C2)c(=O)n1C	12	8
O=C(CNC(=O)C(=O)NC1CCCC1)Nc1ccc(F)cc1Cl	1	2
CN(CC(C)(CO)CO)c1ccnc(C(C)(C)C)n1	5	4
Cc1nc(Cc2noc(C3CC3c3ccccc3C)n2)no1 (stereo not given)	5	3
O=C(c1c(F)c(F)c(F)c(F)c1F)N1CCN(c2nc3nccc(-c4ccc(Cl)c(Cl)c4)n3n2)CC1	7	4
CCc1ccc2c(c1)NC(=O)C2(C)Cc1ccccc1Cl (stereo not given)	4	3
CC(NC(=O)CCNc1nc(-c2ccccc2Cl)nc2ccccc12)c1ccccc1 (stereo not given)	18	21
COc1ccc2ccc(OCc3nc(C(=O)N4CCCO4)co3)cc2c1	15	2
COCCN(CC(=O)N(Cc1ccc(F)cc1)Cc1ccc(C)s1)C(=O)Nc1ccc(OC)cc1	0	4
CCC(C)C(=O)N1CCN(Cc2cc(=O)c(OCc3ccccc3Cl)co2)CC1 (stereo not given)	15	10
COc1ccc(S(=O)(=O)n2nc(C)c(S(=O)(=O)N3CCCC(C)C3)c2C)cc1OC (stereo not given)	0	-1
CC(=O)Nc1cc(C(=O)NCC2(N3CCOCC3)CCCC2)c2c(c1)nc(C)n2Cc1ccccc1	24	8
Cc1cc(C)n(C2CCN(c3ncnc4c3CCN(C(=O)C3CC3)C4)C2)n1 (stereo not given)	4	-3
Cc1ccsc1C(=O)N(C)CC1CCN(CCc2cccc(C(F)(F)F)c2)CC1	5	-2
COc1cc2c(cc1C1CC(=O)Nc3c1c(-c1cccnc1)nn3C)CCC2 (stereo not given)	5	3
CC(C)OC(=NCCN(C)C)NC(=O)c1ccc(Cl)c(Cl)c1	-1	8
N#Cc1cc(C#N)c(SCc2cc3c(cc2Br)OCO3)nc1N	4	6

Next part; it opens with the 3 that closed the last part.
SMILES	NPYLR7 ag	NPYLR7 ag max-min
COc1cc2c(cc1C1CC(=O)Nc3c1c(-c1cccnc1)nn3C)CCC2 (stereo not given)	5	3
CC(C)OC(=NCCN(C)C)NC(=O)c1ccc(Cl)c(Cl)c1	-1	8
N#Cc1cc(C#N)c(SCc2cc3c(cc2Br)OCO3)nc1N	4	6
C#CCn1c(COc2ccccc2)nc2ccccc21	-3	-6
Cc1ccc(C2c3ccccc3CCN2C(=O)CCc2ccccc2)cc1 (stereo not given)	3	13
Cc1cc(C)c(NC(=O)c2cccc(CN3CCCC(C(N)=O)C3)c2)c(C)c1 (stereo not given)	-19	-19
c1ccc(Oc2nnnn2-c2ccccc2)cc1	-4	-4
O=C(NCCc1cc(Cl)c2c(c1)OCCO2)c1ccccc1F	-2	-4
O=C(COc1ccc2c(c1)CCC(=O)N2)Nc1nc(-c2ccccc2)c(-c2ccccc2)s1	1	0
O=C(O)c1ccc(N2C(=O)c3cccc4c([N+](=O)[O-])ccc(c34)C2=O)cc1	4	1
CCCCC(=O)N1CCC2(CC1)CN(CC(=O)OCC)CCN2C	2	-8
O=C(NCCN1CCN(S(=O)(=O)c2ccc(Cl)cc2)CC1)C(=O)Nc1ccc(F)cc1	-6	-12
Cc1cc(C)cc(C(=O)Oc2coc(CSc3nccc(C)n3)cc2=O)c1	-10	-10
CCCCN1N=C(C)Cn2c1nc1c2c(=O)n(CC(C)C)c(=O)n1C	6	9
CCCN(CC(=O)N1CCc2sccc2C1c1ccc(OC)cc1)C(=O)c1cc(Cl)cc(Cl)c1 (stereo not given)	-7	1

Two entries from above, with two lines to a compound.
Order of results – NPYLR7 ag | NPYLR7 ag max-min
> CCCCN1N=C(C)Cn2c1nc1c2c(=O)n(CC(C)C)c(=O)n1C
→ 6 | 9
> CCCN(CC(=O)N1CCc2sccc2C1c1ccc(OC)cc1)C(=O)c1cc(Cl)cc(Cl)c1 (stereo not given)
→ -7 | 1

The results go on.
SMILES	NPYLR7 ag	NPYLR7 ag max-min
O=C(O)c1ccc(-n2c(O)c(C=C3C=Nc4ccccc43)sc2=S)cc1	-1	-12
O=C(NCC(=O)N1CCOC(COCc2ccc(F)cc2Cl)C1)c1cccc(C(F)(F)F)c1 (stereo not given)	3	3
COc1ccc2nc(N(Cc3cccnc3)C(=O)C3=COCCO3)sc2c1	-12	-10
CC(C)C(=O)N1CCN(C(=O)c2cn(CC3CCCO3)cc3c(=O)n(-c4ccccc4)nc2-3)CC1 (stereo not given)	1	0
CN(C(=O)c1cccc(C(F)(F)F)c1)c1ccc(Br)cc1Cl	8	5
CC(C)CN1C(=O)N(Cc2ccccn2)C(=O)C12CCN(Cc1ccc3c(c1)Cc1ccccc1-3)CC2	18	8
O=C(Nc1ccc(N2CCCC2)c(C(=O)NCC2CCCO2)c1)Nc1ccc(Cl)cc1Cl (stereo not given)	-1	5
O=C(c1csc(CSc2nnc(-c3ccncc3)n2-c2ccccc2)n1)N1CCC2(CC1)OCCO2	2	7
CC(C)c1ccc(-c2csc(NC(=O)Cc3ccccc3)n2)cc1	5	3
CC1CCC2(CC1)OCC1(CCC3(COC4(CCC(C)CC4)OC3)C1=O)CO2 (stereo not given)	3	2
Cc1cc(C)nc(-n2ncc(C(=S)Nc3ccccc3)c2C)n1	-1	-1
CC(C)C(NC(=O)c1ccc(Cl)cc1Cl)C(=O)N1CCN(S(C)(=O)=O)CC1 (stereo not given)	0	-4
COc1cc(C(=O)NCC(=O)Nc2nc3cc4c(cc3s2)OCCO4)cc(OC)c1OC	2	2
CN(C)CCN(Cc1ccccn1)S(=O)(=O)c1ccc(C#N)cc1	4	2
COc1ccccc1C(C)NS(=O)(=O)c1ccc(F)cc1F (stereo not given)	-7	-8
O=C(CSc1nc2c(cnn2Cc2ccccc2)c(=O)[nH]1)NCc1ccc2c(c1)OCO2	-2	-4
CCC(O)CN(CCOC)Cc1ccc(OC)cc1 (stereo not given)	25	25
CC(Cc1ccsc1)Nc1ccnc(C(=O)NC2CC2)c1 (stereo not given)	1	-2
COC(=O)C1CC2(CCN(C(=O)c3coc4c3C(=O)CCC4)CC2)c2ccccc21 (stereo not given)	0	22
O=C(c1ccccc1OC1CCN(CC2CCOC2)CC1)N1CCCCC1 (stereo not given)	1	-6
CC(C)(C)c1ccc(S(=O)(=O)NC(=O)C2(C)CCN2C(=O)Cc2cccs2)cc1 (stereo not given)	3	3
O=C(NC(=S)NC1CCSC1=O)c1ccccc1 (stereo not given)	1	28
CC(NC(=O)C1CN(Cc2ccccc2)CCO1)c1cccnc1 (stereo not given)	3	-2
Cc1ccc2nc(-c3cccc(Oc4ccc([N+](=O)[O-])cc4)c3)oc(=O)c2c1	-5	-2
CN(C)C1CCCN(C(=O)CSc2cn(C)c3ccccc23)CC1 (stereo not given)	1	0
COc1ccccc1/C=C/C(=O)NCC(=O)N=Nc1c(O)n(Cc2ccccc2)c2ccccc12	5	6
COc1ccc(-n2nc(C)c(-c3ccccc3)c2NC(=O)CN(C(=O)Nc2ccc(C)c(Cl)c2)C(C)C)cc1	-3	2
O=C(NNC(=O)c1ccoc1)c1ccc(S(=O)(=O)N2CCCC2)cc1	13	12
CCOc1cn(C)c(C(=O)Nc2ccccc2SC)cc1=O	5	3
Cc1cccc(C2c3[nH]c4ccccc4c3CCN2C(=O)c2cc(CC(C)C)nc(C)n2)n1 (stereo not given)	12&-4	-2&-6
Cc1ccc(SCC2=NN(c3nc4ccccc4s3)C(=O)/C2=C/c2ccc(N(C)C)cc2)cc1	3	0
c1ccc(CSc2nnc3c(n2)OC(c2ccncc2)Nc2ccccc2-3)cc1 (stereo not given)	5	1
COC(=O)C(C)n1c(=O)c2c(nc3n(-c4cc(C)cc(C)c4)c(C)cn23)n(C)c1=O (stereo not given)	7	12
COc1ccc(OC)c(NC(=O)C2(C)CCN2Cc2ccc(OC(F)(F)F)cc2)c1 (stereo not given)	-2	-8
COc1ccc(OC)c(NC2=NS(=O)(=O)c3cc([N+](=O)[O-])ccc32)c1	15	14
Cn1nc(-c2ccc(C(C)(C)C)cc2)cc1C(=O)O	28	11
NC(=O)c1cccc(CC2CCN(C(=O)c3ccc4c(c3)OCO4)C2)c1 (stereo not given)	5	6
Cc1c(NC(=O)C(C)OC(=O)c2cccc(Oc3ccccc3)c2)c(=O)n(-c2ccccc2)n1C (stereo not given)	1	1
O=C(Cn1nc([N+](=O)[O-])nc1Br)NCc1ccco1	1	-5
Cc1ccc(-c2ccc(=O)n(CC#N)n2)cc1	7	2
CC(C)CNC(=O)CN1C(=O)C(=O)N(CCC2=CCCCC2)C1=O	6	7
CNC(=O)c1ccc(CN2CCOC(c3ccc4cc(OC)ccc4c3)C2)o1 (stereo not given)	6	-1
O=C(c1cncc(N2CCOC(C(F)(F)F)C2)n1)N1CCCC1 (stereo not given)	8	6
CC(C)c1cc(C(=O)N2CC[C@@H](c3ccc4c(c3)OCO4)[C@H](O)C2)n[nH]1	-3	-4
CSCc1nc2ccccc2n1CC(=O)Nc1ccc(-n2cnnn2)cc1	2	2
COC(=O)c1ccc(CSc2nc3ccccc3c(=O)n2C2CC2)cc1	2	-4
Cc1ccc(-c2nnc(NCCCN3CCOCC3)c3ccccc23)cc1C	-3	-2
Cc1noc(C)c1CNC(C)COc1ccc2ccc(=O)oc2c1 (stereo not given)	-3	-6

Reprinted from the part before: 5 entries, followed by the next part.
SMILES	NPYLR7 ag	NPYLR7 ag max-min
CC(C)c1cc(C(=O)N2CC[C@@H](c3ccc4c(c3)OCO4)[C@H](O)C2)n[nH]1	-3	-4
CSCc1nc2ccccc2n1CC(=O)Nc1ccc(-n2cnnn2)cc1	2	2
COC(=O)c1ccc(CSc2nc3ccccc3c(=O)n2C2CC2)cc1	2	-4
Cc1ccc(-c2nnc(NCCCN3CCOCC3)c3ccccc23)cc1C	-3	-2
Cc1noc(C)c1CNC(C)COc1ccc2ccc(=O)oc2c1 (stereo not given)	-3	-6
CCCc1n[nH]c2c1C(=O)C(C(=O)OC)C(C)(C)C2 (stereo not given)	-1	22
COc1cc(OC)cc(C(=O)N2CCC3(CC2)SCCN3C(=O)c2ccc(Cl)c(Cl)c2)c1	10	19
COc1ccc(C(=O)Oc2cccc(NC3=NS(=O)(=O)c4ccccc43)c2)c(OC)c1	-7	5
CC(C)(C)C(=O)Nc1ccnn1C1CCN(C(=O)CCN2Cc3ccccc3C2=O)CC1	3	0
COc1ncccc1-c1cc(N)nc(N2CCCC2)n1	12	10
CCOCCCn1c(SC(C)C(=O)N2CCCc3ccccc32)nc2sc(C)c(C)c2c1=O (stereo not given)	8	8
CCOC1=NN(c2ccc([N+](=O)[O-])cc2)C(=O)/C1=C\c1cccs1	6	4
C=CCNC(=O)c1c(NC(=O)c2ccccc2OC)sc2c1CCCC2	2	0
